eIF4H FP inh: inhibitors of RNA binding by human eIF4H; Q15056; eIF4H fluorescence polarization binding assay; AID 2012; inhibition, % at 35 µM; actives 0.94% (n = 290,000);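 active = 50% or more with normal probe brightness, or confirmed in later tests; inconclusive = above 50% with abnormal brightness, or retests that disagree; inactive = below 50% or failed in later tests; about a fifth of its hits are not listed in these tables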;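 also: calls also rest on retests at 20 µM and on dose response follow-up; 0% = protein and probe with vehicle and 100% = probe without protein; strong numbers were not always called active; many hits fall short of the cut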
PABP polyA inh: blocks human PABP binding to poly(A) RNA | fluorescence polarization | inhibition, % at 35 µM | actives 1% (n = 290,000) | AID 2014;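 active = 50% or more with normal probe brightness, or confirmed in later tests; inconclusive = above 50% with abnormal brightness, or retests that disagree; inactive = below 50% or failed in later tests; about a fifth of its hits are not listed in these tables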;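 also: calls also rest on retests at 20 µM and on dose response follow-up; controls were probe without protein and protein plus probe with vehicle; some compounds called inactive have numbers as strong as hits; many hits fall short of the cut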
Target sequence (P11940 whole entry, looked up): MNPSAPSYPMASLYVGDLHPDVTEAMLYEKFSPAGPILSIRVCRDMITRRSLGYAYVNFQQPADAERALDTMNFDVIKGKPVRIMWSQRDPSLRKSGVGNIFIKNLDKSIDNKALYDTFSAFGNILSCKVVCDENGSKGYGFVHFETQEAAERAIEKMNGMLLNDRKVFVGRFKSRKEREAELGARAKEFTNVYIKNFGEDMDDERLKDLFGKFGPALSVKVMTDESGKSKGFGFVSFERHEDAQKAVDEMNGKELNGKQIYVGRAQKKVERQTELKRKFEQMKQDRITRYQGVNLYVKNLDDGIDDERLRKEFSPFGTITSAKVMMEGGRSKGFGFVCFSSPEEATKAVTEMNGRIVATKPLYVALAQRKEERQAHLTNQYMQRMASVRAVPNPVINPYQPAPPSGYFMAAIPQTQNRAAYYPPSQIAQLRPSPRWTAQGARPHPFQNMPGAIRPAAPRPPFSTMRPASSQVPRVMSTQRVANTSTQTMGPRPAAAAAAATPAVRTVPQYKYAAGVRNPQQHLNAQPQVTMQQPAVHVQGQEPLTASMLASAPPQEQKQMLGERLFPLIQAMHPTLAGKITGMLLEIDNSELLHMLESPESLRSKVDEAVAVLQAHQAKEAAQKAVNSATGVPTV
CSC inhib: blocks cancer stem cells; inhibition, % at 7.5 µM; actives 1.1% (n = 300,000); cancer stem cell-like cells viability, luminescence;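 active = mean at 75% or more and at least half the replicates too; inconclusive = mean and replicates disagree; tested in HMLE shEcad cells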;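 also: 0% = median of negative and 100% = median of positive control wells; the first replicate is given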
MT1-MMP act inh: blocks activation of human MT1-MMP; P50281; HT1080 RFP-PRO-GFP cells, GFP/RFP ratio fluorescence, overnight; percent of plate control window, DMSO zero; GFP/RFP ratio change, % at 20 µM; actives 0.061% (n = 360,000); AID 651647;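 active = GFP/RFP ratio change of at least 30% with cell ATP level not reduced by more than half and red fluorescence within 50% of control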; also: strong numbers were not always called active
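Test system: HT1080 cells expressing an RFP-PRO-GFP fluorescent reporter construct / Compound dosing: single-point 20 µM compound, 1% DMSO / Schedule: cells overnight before dosing, compound overnight, 37 °C, 5% CO2 / Evaluation: GFP/RFP fluorescence ratio / Control set: DMSO and RFP-L50D-GFP cell wells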
Rce1 inh: blocks yeast Ras-converting enzyme; Q03530; yeast membranes, quenched prenylated peptide cleavage fluorescence; calls only; actives 0.27% (n = 290,000); AID 2563;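 active = fall in fluorescence gain of 50% or more versus controls, with final raw signal at or below 3038400; inconclusive = same 50% fall but final raw signal above 3038400; inactive = fall in fluorescence gain under 50%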;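 also: plate controls were neutral control wells for no effect and wells lacking membranes for full effect; tested at 10 µM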
Target sequence (Q03530 whole entry, looked up): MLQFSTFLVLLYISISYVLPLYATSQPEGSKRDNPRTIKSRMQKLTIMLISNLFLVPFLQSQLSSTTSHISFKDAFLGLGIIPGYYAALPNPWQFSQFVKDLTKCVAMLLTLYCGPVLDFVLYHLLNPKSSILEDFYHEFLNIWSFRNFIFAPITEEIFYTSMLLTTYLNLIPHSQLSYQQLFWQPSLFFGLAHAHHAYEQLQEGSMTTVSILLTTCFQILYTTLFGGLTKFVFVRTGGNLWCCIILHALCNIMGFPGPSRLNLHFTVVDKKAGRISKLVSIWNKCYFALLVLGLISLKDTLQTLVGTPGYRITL
HIV Env fusion: blocks HIV Env-driven cell-cell fusion; HeLa-JRFL Env/CEM21 cell fusion, luciferase; inhibition, % at 12.3 µM; actives 1.1% (n = 360,000); AID 651610;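 active = mean replicate inhibition score of at least 50 and every replicate individually at or above 50; inconclusive = only one of the two criteria met; inactive = mean below 50 and not all replicates reaching 50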;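 also: 0% = plate neutral controls and 100% = maraviroc near 300 nM; one replicate is shown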
Yeast UUG start: alters start codon recognition fidelity in yeast; S. cerevisiae UUG-firefly luciferase reporter, luminescence/redox ratio; activity score, % at 18.7 µM; actives 0.13% (n = 350,000); AID 602363;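 active = replicate mean at a twofold rise or more, about +100% in these data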;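 also: firefly luciferase made from a UUG start codon reports start codon fidelity; reporter light over untreated wells divided by growth signal over untreated wells; some hits fall short of that in this replicate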
eIF4H FP inh retest: second read-out of eIF4H FP inh, no call of its own (marks repeat the call); inhibition, %; compound at 20 µM; confirmation average;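 mean of two retest wells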
PABP polyA inh retest: also measured in PABP polyA inh; calls as there; inhibition, %; compound at 20 µM; confirmation repeats;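 mean of two retest wells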
MT1-MMP act inh RFP: recorded beside MT1-MMP act inh, whose call it bears; RFP signal change, %; measured here: RFP expression control read;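 0 = vehicle wells; hits needed this value within 50% of zero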
* marks the source's active call; other numbers are inactive results; i = inactive; u = inconclusive; x = not tested or not shown; + = active, no number; & = joins results of further samples; [ ] = remark or other dose.

SMILES	eIF4H FP inh	PABP polyA inh	CSC inhib	MT1-MMP act inh	MT1-MMP act inh RFP	Rce1 inh	HIV Env fusion	Yeast UUG start	others
Cc1ccccc1NC(=O)CCCNC(=O)c1ccc(Cl)cc1	2	9	-6	2	4	i	23	-7
CC(C)(C)C(=O)Cn1ncc(Cl)c(Cl)c1=O	5	u	x	-1	2	i	-173	x
C[C@H]1CCCCO[C@H](CN(C)C(=O)C2CCCCC2)[C@@H](C)CN([C@@H](C)CO)C(=O)c2cc(NC(=O)NC3CCCCC3)ccc2O1	x	x	x	5	-3	x	-7[16.7 µM]	-8&-1
CCOc1ccc(N2C(=O)S/C(=C\c3cccn3C)C2=O)cc1	4	2	12	0	1	i	2	x
O=[N+]([O-])c1ccccc1S(=O)(=O)N1CCN(Cc2ccc3c(c2)OCO3)CC1	-8	-15	-6	-2	-1	i	19	x
O=C(NCc1ccccc1)c1ccc2c(c1)S(=O)(=O)c1cc(Cl)ccc1C2=O	x	x	-4	-1	3	x	-5	-19
Cc1cc(N)n2ncc(-c3cccc(Br)c3)c2n1	-2	1	33	0	-1	x	x	-8
Clc1ccc(CNCCCSc2ncccn2)cc1	-1	4	-12	-5	2	i	-25	-12
Cc1ccc(CSCCNC(=O)c2ccc(NS(C)(=O)=O)cc2)cc1	-8	30	12	7	2	i	-8	-16
O=C(Nc1ccccc1F)c1ccc(Cn2cc(Br)cn2)cc1	-10	-1	30	-2	0	i	-13	-6
COc1cc(CN2CCNC(=O)C2CC(=O)NC2CCC2)cc(OC)c1 (configuration not stated)	-1	13	x	1	0	i	5	-5
CCOC(=O)c1c(NC(=O)C2COc3ccccc3O2)sc(C(C)=O)c1C (configuration not stated)	-2	-10	0	3	-16	i	x	-1
CCOC(CNC(=O)c1ccc(N2CCc3ccccc32)c([N+](=O)[O-])c1)OCC	-1	-10	2	11	-12	i	x	x
COc1ccccc1CNC(=O)C1CCC(CNc2c(N3CCC(C)CC3)c(=O)c2=O)CC1 (configuration not stated)	4	19	-3	2	1	i	-7	-2
O=C(NNC(=O)C12CC3CC(CC(C3)C1)C2)c1ccccn1	18	-3	17	4	-2	i	10	-18
CCN1CCN(C(=S)Nc2ccc3nc(N4CCN(C)CC4)cc(C)c3c2)CC1	0	8	37	2	0	i	x	-9
O=S1(=O)CCC(NC(=S)SCc2ccccc2Br)C1 (configuration not stated)	-3	1	x	-2	2	x	10	-6
CCN(CC)C(=O)CSc1nnc(CCCCCNC(=O)OC(C)(C)C)o1	-4	3	-3	0	-1	i	-52	13
OC(c1ccc(F)c(F)c1)c1nc(-c2cccc(F)c2)cs1 (configuration not stated)	x	x	x	-1	-2	x	-23	-6
CC1(C)CC(=O)C2=C(C1)OC(c1ccncc1)C(C#N)=C2N (configuration not stated)	-7	-5	x	0	4	i	-3	-12
CC1CCCN(c2ccc(C(=O)NCc3cccs3)cn2)C1 (configuration not stated)	1	-2	-8	-7	-18	i	x	-6
COc1ccc(NC(=O)c2ccc(-c3ccc(-c4noc(C)n4)cc3C)cc2)cc1N1CCN(C)CC1	x	x	56	9	1	x	7	7
CCc1nnc(NC(=O)COc2ccc3ccccc3c2)s1	0	2	3	-4	1	x	-4	x
Cc1cc(=O)oc2cc(OCC(=O)NCC3CCCO3)ccc12 (configuration not stated)	-4	2	3	-2	-2	i	-5	x
CC(=O)Nc1ccc(S(=O)(=O)N(Cc2cccnc2)Cc2cc3ccc(C)cc3[nH]c2=O)cc1	-11	12	-5	-3	0	i	2	-18
CCc1ccccc1NC(=O)CN1CCN(C(=O)CNC(=O)c2ccc(-c3ccccc3)cc2)CC1	x	x	x	-3	-25	x	28	3
CC(Cc1cccs1)NC(=O)Nc1ccc([N+](=O)[O-])cc1 (configuration not stated)	-6	12	2	-1	-4	+	30	x
Cc1cc(Cl)ccc1NC(=S)NCCc1ccc(Cl)cc1	-7	-9	5	4	-5	i	u	-14
C#CCOCCOCCOCCNc1nc(N2CCN(C(=O)[C@H]([C@@H](C)CC)n3cc([C@@H](N)CC(C)C)nn3)CC2)nc(N2CCN(C(=O)[C@H](CCCCN)n3cc([C@@H](N)CC(C)C)nn3)CC2)n1	55*	49*	-4	x	x	i	x	39	eIF4H FP inh retest=91*;PABP polyA inh retest=79*
Cc1ccc(-n2[nH]c(C)c(/C=N/N3C(=O)c4cccc5cccc(c45)C3=O)c2=O)cc1	13	13	24	-1	1	i	-6	-29
Cc1ccc(Cn2c(/C=C/c3ccco3)nc3ccccc32)cc1	38	-17	-9	-18	3	i	3	x
O=C(Nc1cccc(-n2cnnn2)c1)c1cc(Cl)nc(Cl)c1	2	1	-22	7	2	i	-7	-24
CCOC(=O)c1cc(-c2ccccc2)nn1Cc1cc(CC)no1	x	x	2	4	-7	i	-16	-10
C=CCN(CC=C)C(=O)Cn1cnc([N+](=O)[O-])n1	2	4	-2	3	3	i	9	-32
COC(=O)C1=C(C)N=C2SCCC(=O)N2C1/C=C/c1ccccc1 (configuration not stated)	-9	-3	16	-3	-3	i	x	3
CCCNC(=O)c1ccc(Cn2cc(-c3ccc(OC)cc3)nc2C(C)N)cc1 (configuration not stated)	x	x	4	x	x	i	-18	-11
Cc1cc(OCC(=O)NNC(=O)c2cccnc2)cc(C)c1Cl	-5	6	21	0	1	i	x	-24
Cc1ccc(S(=O)(=O)CCC(=O)OCC(=O)Nc2cc(F)ccc2C)cc1	x	x	8	-2	5	i	x	-7
NC(=O)CN1C(=O)NC(c2ccccc2)(c2ccccc2)C1=O	14	3	-16	0	4	x	6	-3
Cc1ccc(NC(=S)C2=C(O)c3sccc3N(C)S2(=O)=O)cc1	-4	7	-20	-10	-3	i	-14	-38
COc1ccc(CCNC(=O)CN(C)S(=O)(=O)c2cccc3nsnc23)cc1OC	-6	1	3	-5	-1	i	-9	-1
CC(C)[C@H](NC(=O)c1ccccc1Cl)C(=O)OCc1cc(=O)n2cc(Br)ccc2n1	-4	7	5	1	5	i	0	x
COc1ccc(-n2c(SC3CCOC3=O)nc3ccccc32)cc1 (configuration not stated)	-2	7	-5	-4	0	i	x	-14
CCSc1nnc(NC(=O)C(CC)Oc2ccccc2)s1 (configuration not stated)	8	-13	11	0	3	i	x	x
Cc1ccc(-n2ncc3c(N4CCCC4)ncnc32)c(C)c1	-5	2	-6	6	3	i	-38	-19
Cc1cc(C(=O)N/N=C/c2cc(Cl)cc([N+](=O)[O-])c2O)c2ccccc2n1	45	4	45	-2	-1	i	-10	5
COc1ccccc1-n1cc(CN2CCN(C3CCCCC3)C(CCO)C2)cn1 (configuration not stated)	-1	-1	-4	-8	1	i	0	-1
COC(=O)c1ccccc1NC(=O)CN(Cc1ccc(Cl)cc1)S(C)(=O)=O	2	-1	x	2	-3	i	x	-2

Ordered by molar mass (highest first): some entries from above
SMILES	eIF4H FP inh	PABP polyA inh	CSC inhib	MT1-MMP act inh	MT1-MMP act inh RFP	Rce1 inh	HIV Env fusion	Yeast UUG start	others
CC(C)[C@H](NC(=O)c1ccccc1Cl)C(=O)OCc1cc(=O)n2cc(Br)ccc2n1	-4	7	5	1	5	i	0	x
COc1ccc(CCNC(=O)CN(C)S(=O)(=O)c2cccc3nsnc23)cc1OC	-6	1	3	-5	-1	i	-9	-1
COC(=O)c1ccccc1NC(=O)CN(Cc1ccc(Cl)cc1)S(C)(=O)=O	2	-1	x	2	-3	i	x	-2
COc1ccccc1-n1cc(CN2CCN(C3CCCCC3)C(CCO)C2)cn1 (configuration not stated)	-1	-1	-4	-8	1	i	0	-1
Cc1ccc(S(=O)(=O)CCC(=O)OCC(=O)Nc2cc(F)ccc2C)cc1	x	x	8	-2	5	i	x	-7
Cc1cc(C(=O)N/N=C/c2cc(Cl)cc([N+](=O)[O-])c2O)c2ccccc2n1	45	4	45	-2	-1	i	-10	5
Cc1ccc(NC(=S)C2=C(O)c3sccc3N(C)S2(=O)=O)cc1	-4	7	-20	-10	-3	i	-14	-38
COC(=O)C1=C(C)N=C2SCCC(=O)N2C1/C=C/c1ccccc1 (configuration not stated)	-9	-3	16	-3	-3	i	x	3
Cc1cc(OCC(=O)NNC(=O)c2cccnc2)cc(C)c1Cl	-5	6	21	0	1	i	x	-24
CCOC(=O)c1cc(-c2ccccc2)nn1Cc1cc(CC)no1	x	x	2	4	-7	i	-16	-10
CCSc1nnc(NC(=O)C(CC)Oc2ccccc2)s1 (configuration not stated)	8	-13	11	0	3	i	x	x
NC(=O)CN1C(=O)NC(c2ccccc2)(c2ccccc2)C1=O	14	3	-16	0	4	x	6	-3
C=CCN(CC=C)C(=O)Cn1cnc([N+](=O)[O-])n1	2	4	-2	3	3	i	9	-32

Continued:
SMILES	eIF4H FP inh	PABP polyA inh	CSC inhib	MT1-MMP act inh	MT1-MMP act inh RFP	Rce1 inh	HIV Env fusion	Yeast UUG start	others
O=C(c1[nH]c(C(F)(F)F)nc1-c1ccccc1)N1CCC(C(O)(c2ccccc2)c2ccccc2)CC1	x	x	x	-1	1	x	-15	1
O=C(CSc1nc2ccccc2s1)Nc1ccc(Cl)c(S(=O)(=O)N2CCOCC2)c1	-13	-1	-14	-4	-13	i	x	x
O=C(OCC(=O)N1CCCC1)c1ccc(S(=O)(=O)N2CCOCC2)cc1	-9	1	-6	-2	-2	i	-13	2
O=C(Nc1cccn2ncnc12)c1ccc(Cl)cc1Cl	-3	3	-7	-3	-2	i	-75	-6
COc1ccc(N2CCN(C(=O)CC3NC4CCCCC4NC3=O)CC2)cc1 (configuration not stated)	-2	-3	6	1	2	i	-15	-22
CC(C)OC(=O)N(C)C[C@@H]1OCc2cnnn2CCCC(=O)N([C@H](C)CO)C[C@@H]1C	x	x	x	1	8	x	47	2
CCC(c1nnnn1CCOC)N1CCN(C(=O)c2ccco2)CC1 (configuration not stated)	10	7	-6	-3	3	i	x	-17
Cc1ccc2nc(C)cc(Cl)c2c1	2	26	-7	3	4	i	5	x
COc1ccc(-c2noc(-c3ccccc3-c3ccccc3)n2)cc1OC	-4	7	80*	-8	-14	i	x	-10
COc1ccc(-c2nnc(SCCC(=O)O)n2-c2ccccc2)cc1	-6	-2	-14	2	5	i	2	-9
O=C1CCCN1CCCNS(=O)(=O)c1ccc(Cl)c(C(=O)N2CCOCC2)c1	3	-1	-15	5	6	i	-13	0
CCN(CC)CCN(C(=O)c1ccc2ccccc2c1)c1nc2cc3c(cc2s1)OCO3	-10	-8	18	-3	-3	+	11	-8
CCN(CC(=O)NCc1ccccc1Cl)CC(=O)Nc1c(F)cccc1F	-5	0	-8	1	3	i	5	1
CCOC(=O)[C@@H]1[C@H]2COc3cc(OC)ccc3[C@H]2N2C(=O)N(c3ccc(C(F)(F)F)cc3)C(=O)[C@@]12C	0	-9	-1	-1	-3	i	7	-14
NC(=O)Cc1nc(-c2ccc([N+](=O)[O-])cc2)cs1	2	5	-6	0	2	i	-16	x
COc1cc(C(=O)N2C[C@H]3CON(C)[C@H]3C[C@H]2c2ccc(N3CCCCC3)cc2)cc(OC)c1OC	x	x	x	-1	4	x	23	4
